Screens (PubChem BioAssay)
CtBP-E1A blk – qHTS Assay for Inhibitors of the CtBP/E1A Interaction; AlphaScreen GST-E1A/His-CtBP binding, 1536-well; hits give low values; control for the full effect not named in the record; activity change, % (no concentration beside the values); 0.49% of 340,000 active; in the data active means activity change below about -65%; inconclusive means about -30% to -65%; inactive means above about -30%; also: % is scaled to controls: 0 for no effect and ±100 for the full control effect; compound concentration not given in the record
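Steps: dispense buffer (Tris pH 8.0, NaCl 300 mM, TCEP 1 mM, BSA, Tween 20); add 5X protein mix (GST-E1A, His-CtBP, 125 nM each); pin 23 nL compound; 2 h at 37 °C, dark; add 5X beads (50 ug/mL); 1 h; read.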
D2 PAM – Beta-Arrestin HTS for Positive Allosteric Modulators of the Human D2 Dopamine Receptor: Potentiators; DiscoveRx D2 beta-arrestin cells, luminescence, 90 min; 100% = 57 uM dopamine signal; potentiation, % (test concentration not listed); 0.23% of 360,000 active; active = potentiation of 50% or more; inconclusive = 30% to 50%; inactive = 30% or less;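 also: compound concentration not given in the record; tested on top of an EC20 dose of dopamine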
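PathHunter beta-arrestin assay in DiscoveRx D2 cells. Compounds were added with an EC20 of dopamine (50 nM final) for 90 min at 37 deg C. Luminescence was read 1 h after detection reagent, with 57 uM dopamine as the EC100 control.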
Sfp PPTase inh – qHTS Assay for Inhibitors of Bacillus subtilis Sfp phosphopantetheinyl transferase (PPTase); 3.5% of 310,000 active; AID 1490, 2009; Biochemical Sfp PPTase activity, qHTS; 4'-phosphopantetheinyl transferase ffp (Bacillus subtilis), Q9F4F7; Potency, µM, without a hit: max response, negative = inhibition, hits mostly inhibitors; active = well fitted inhibition curve with a large enough effect; inconclusive = small, poorly fitted or top-dose-only effect, or another doubt; inactive = no such curve, though single readings can be large or run the other way;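 also: the enzyme is Sfp with the accession as filed and its product quenches rhodamine fluorescence; potency is read from the fitted curve at half-maximal effect; 0% = enzyme reaction without inhibitor and -100% = no enzyme wells; top concentration of the series not given in the record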
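Step 1, compound plus 15 nM Sfp-PPTase, 15 min, room temperature. Step 2, add rhodamine-CoA (5 uM) and BHQ-2-YbbR (12.5 uM). Step 3, read 525/598 nm fluorescence at 0 and 30 min.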
Six1-Eya2 inh – qHTS Assay for Inhibitors of the Six1/Eya2 Interaction; activity change, % (concentration not given with the values); Homeobox protein SIX1 (Homo sapiens) + Protein phosphatase EYA2 (Homo sapiens), …; 0.56% of 360,000 active; AlphaScreen GST-Six1/His-Eya2 binding, biochemical; hits give low values; control for the full effect not named in the record; in the data active = activity change below about -65%; inconclusive = about -30% to -65%; inactive = above about -30%; also: % is scaled to controls: 0 for no effect and ±100 for the full control effect
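Six1/Eya2 binding was read as AlphaScreen signal after compounds were pinned into GST-Six1 plus His-tagged Eya2 (5X stock 250/500 nM) in pH 8.0 Tris/NaCl/TCEP buffer, beads added, then incubated 1 h, 37 C, dark.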
PINK1 expr mod – A Quantitative High throughput Screen to Identify Chemical Modulators of PINK1 Expression; PINK1 immunofluorescence, high-content cytometry, 24 h; 0.2% of 410,000 active; Potency, µM (titrated, usually from 76.6 µM), for the others: at the highest dose activation (PINK1 increase), actives largely listed as activators; active = well fitted activation curve with a large enough effect; inconclusive = small, poorly fitted or top-dose-only effect; inactive = flat fitted curve, though single readings scatter; cell line not stated here;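 also: potency is read from the fitted curve at half-maximal effect; % of control where 0% means no effect; nearly all actives have a fitted effect of over 65% in size; a mitochondrial uncoupler was the plate control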
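Compound titrations (5 concentrations, 24 h) on a stable cell line; DMSO and CCCP controls. Endpoint: fixed-cell PINK1 immunofluorescence with mitochondrial, cell and nuclear markers, scanned by microplate cytometer.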
D2 agonist – Beta-Arrestin HTS for Positive Allosteric Modulators of the Human D2 Dopamine Receptor: Agonists | DiscoveRx PathHunter D2 beta-arrestin, luminescence, 90 min; 100% = 57 uM dopamine signal | activation, % (concentration not given with the values) | 0.084% of 360,000 active | D(2) dopamine receptor (Homo sapiens), P14416; in the data active = activation above about 40%; inconclusive = about 15% to 40%; inactive = below about 15%; also: compound concentration not given in the record; the text of the record calls up to 30% inactive
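DiscoveRx PathHunter D2 beta-arrestin cells (2,100/well) attached overnight, then compound-stimulated 90 min at 37 C in HBSS/10 mM HEPES/0.1% Tween-20 buffer; beta-galactosidase complementation read by luminescence after 1 h at ambient temperature. Dopamine 57 uM final (EC100) as control.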
TRPV1 PAM – HTS Assay for Compounds that Act as Potentiators of the Vanilloid Receptor 1 | Transient receptor potential cation channel subfamily V member 1 (Homo sapiens), Q8NER1 | TRPV1-expressing cells, Fluo-8 calcium influx, capsaicin EC20 potentiation; host cell line not named in the record; control for the full effect not named in the record | potentiation, % at 8.33 µM | 0.02% of 320,000 active; active means potentiation above 80%; inconclusive means 30% to 80%; inactive means below 30%; also: 0% is about no effect
Target sequence (Q8NER1 whole entry, looked up): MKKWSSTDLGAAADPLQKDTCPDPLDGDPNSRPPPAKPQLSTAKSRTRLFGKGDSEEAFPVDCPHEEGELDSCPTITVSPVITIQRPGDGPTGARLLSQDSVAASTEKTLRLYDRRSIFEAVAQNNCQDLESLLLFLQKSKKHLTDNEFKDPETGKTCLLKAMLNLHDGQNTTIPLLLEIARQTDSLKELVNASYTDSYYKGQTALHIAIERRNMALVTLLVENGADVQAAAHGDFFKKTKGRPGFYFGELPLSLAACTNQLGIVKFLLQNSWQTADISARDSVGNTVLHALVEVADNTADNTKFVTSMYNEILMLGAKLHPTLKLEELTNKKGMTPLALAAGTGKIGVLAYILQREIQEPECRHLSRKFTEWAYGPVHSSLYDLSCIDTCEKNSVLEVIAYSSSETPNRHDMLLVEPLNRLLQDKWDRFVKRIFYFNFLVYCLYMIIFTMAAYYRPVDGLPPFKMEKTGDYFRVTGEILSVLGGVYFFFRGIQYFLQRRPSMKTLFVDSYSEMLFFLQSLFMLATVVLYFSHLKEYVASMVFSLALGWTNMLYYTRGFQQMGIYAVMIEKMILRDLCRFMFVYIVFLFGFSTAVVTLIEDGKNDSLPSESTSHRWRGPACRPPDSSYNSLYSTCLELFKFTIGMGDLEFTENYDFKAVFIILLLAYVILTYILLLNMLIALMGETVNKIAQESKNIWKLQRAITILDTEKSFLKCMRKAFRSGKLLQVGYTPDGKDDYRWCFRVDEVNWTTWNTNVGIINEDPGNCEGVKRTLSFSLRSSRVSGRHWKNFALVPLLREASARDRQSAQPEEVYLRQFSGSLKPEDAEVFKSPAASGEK
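Cells expressing TRPV1 were dye-loaded with Fluo-8 and read kinetically: 10 s baseline, 3 min after compound (agonist portion), then 2 min after EC20 capsaicin (allosteric enhancer portion). Calcium-bound dye fluorescence at 480/520 nm.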
Active calls of the source: *; ? = inconclusive; nt = no result given; & = joins results of further samples; [ ] = dose if it differs, or a comment.

SMILES | CtBP-E1A blk | D2 PAM | Sfp PPTase inh | Six1-Eya2 inh | PINK1 expr mod | D2 agonist | TRPV1 PAM
C=CCN(C(=O)c1csnn1)C(C(=O)NCc1ccc(F)cc1)c1sccc1C (centres undefined) | -3 | 2 | 27% | -4 | -0.7% | 4.8 | 10
CCCc1c(-c2ccccc2)ncn1Cc1ccccc1OC | -1 | nt | nt | -17 | 19% | nt | nt
O=C(NC(=S)Nc1cccc2c(O)cccc12)c1ccco1 | -15 | 23 | 50µM* | -11 | 0.9% | 4.4 | 1
CSC1=NC2(CCCCC2)CC12C=CC(=O)C=C2 | 19 | -1 | -15% | 7 | 0.5% | -3.9 | -3
O=C(NCCN1CCOCC1)C(=O)NCC1OCCN1S(=O)(=O)c1ccc(Cl)cc1 (centres undefined) | -6 | -5 | nt | 4 | 0.8% | -1.9 | nt
CC(=O)Nc1ccc(NC(=O)C(C)OC(=O)CC23CC4CC(CC(Br)(C4)C2)C3)cc1 (centres undefined) | -1 | -9 | nt | -7 | 5.7% | -2.9 | nt
O=C(NC(=S)N1CCN(c2ccc(O)cc2)CC1)c1cccs1 | nt | -2 | -13% | -2 | -1.4% | 7.4 | 0
O=C(CN1CCCCC1)Nc1nnc(-c2ccccc2)s1 | 16 | 20 | 3% | 4 | 3.7% | -0.1 | 3
O=C(Nc1ccncc1)c1ccc(S(=O)(=O)Nc2ccccc2)cc1 | 0 | -4 | 2% | 2 | 1.2% | 5.6 | -16
COc1cc(OC)cc(C(=O)NCC(=O)OCC(=O)Nc2ccc3c(c2)OCO3)c1 | 1 | -44 | -24% | -4 | 0.6% | -4.1 | 6
COc1cccc(C(=O)OC(C)C(=O)Nc2ccc3c(c2)OCO3)c1 (centres undefined) | -2 | 2 | nt | -6 | 3.3% | 8.0 | -14
CCOC(=O)c1oc2cccc(OCC(O)CNC(C)C)c2c1C (centres undefined) | -5 | -9 | 28µM* | 1 | -5.1%[38.3 µM] | -5.5 | 5
Cc1cccc(-n2cc(-c3ccccc3)c3c(N4CCOCC4)ncnc32)c1 | -19 | 23 | -27% | -17 | -2.2% | ? | -8
CCC(C(=O)OCc1csc(CC(=O)Nc2ccccc2C)n1)c1ccccc1 (centres undefined) | 7 | -1 | nt | 1 | 2.9% | -2.4 | -19
Cc1ccc(C(=O)NCC(c2ccc(F)cc2)N2CCOCC2)cc1 (centres undefined) | 6 | -17 | -9% | 13 | 1.0% | -4.9 | 5
COc1ccccc1N1C(=O)C2C3C=CC(C3)C2(C)C1=O (centres undefined) | 5 | 27 | 18% | 1 | 0.7% | 2.3 | 4
COc1cccc(Cn2cccc(NC(=O)Nc3cccc(C#N)c3)c2=O)c1 | -21 | 1 | 1% | 0 | ? | 4.6 | 9
CC1CCN(S(=O)(=O)c2ccc3c(c2)oc(=O)n3CC(=O)N2CCc3ccccc3C2)CC1 | 8 | -3 | 11% | 3 | 11% | -1.7 | 4
Cc1ccc2occ(C(=O)c3ccco3)c(=O)c2c1 | 0 | -2 | -2% | 32 | 0.6%[38.3 µM] | -1.1 | 9
O=C(N/N=C\c1ccc(Oc2ccccc2)cc1)c1csnn1 | nt | 27 | -83% | 0 | 0.5% | 1.5 | -17
CCCc1cc(N2CCCC(C(=O)Nc3cc(Cl)ccc3OC)C2)n2ncnc2n1 (centres undefined) | -2 | -6 | nt | -2 | 0.9%[38.3 µM] | -1.4 | nt
CCOc1ccc(C(=O)NC2CCN(C(=O)Nc3ccccc3OC)CC2)cc1 | -1 | -15 | -6% | 5 | -1.5% | -2.1 | -6
C/C(=N\NC(=O)c1ccc(Cl)cc1)c1cccc(NC(=O)C(C)C)c1 | -5 | -24 | 10% | -2 | -0.9% | -1.3 | -30
N=c1c2c(n(Cc3ccc(F)cc3)c3c1CCC3)CCC2 | -21 | -5 | -1% | -3 | 23%[38.3 µM] | 0.5 | -1
c1ccc2nc(N3CCOCC3)cnc2c1 | 6 | 5 | 12% | 10 | -0.2% | -0.7 | 0
Cc1cc(C)cc(N(C)S(=O)(=O)c2nnc(NC(=O)C(C)C)s2)c1 | -4 | -4 | 13% | 29 | 7.9% | 0.5 | -16
COc1ccc(C2(C)NC(=O)N(CC(=O)Nc3ccc4c(c3)CCC4)C2=O)cc1OC (centres undefined) | 1 | -1 | nt | 3 | 3.7% | 13 | -10
CCC(=O)Nc1cc(SCCO)cc([N+](=O)[O-])c1 | -17 | -13 | 8% | 0 | 2.7%[38.3 µM] | -2.2 | -14
Cc1ccc(C(=O)N2CCC(Cc3ccccc3)CC2)cc1S(=O)(=O)N1CCOCC1 | 0 | -3 | nt | -11 | -0.3% | 1.1 | -27
COC(=O)C1=C(C)N(CCc2ccc(OC)c(OC)c2)C(=O)C1 | -4 | -8 | -2% | -4 | 2.8% | -1.4 | 2
Cc1cc(C(=O)NC2CCCc3ccccc32)ccc1[N+](=O)[O-] (centres undefined) | -3 | -6 | 10% | -6 | 7.2% | -3.4 | -3
COc1ccc(CC(=O)NCC2CCCN(Cc3ccccc3OC)C2)cc1 (centres undefined) | -2 | -20 | -1% | 2 | -0.5% | -7.1 | -15
CC(C)N1C(=O)CCC1C(=O)NC1CCCC1 (centres undefined) | 9 | 0 | 24% | 2 | 9.5%[38.3 µM] | 8.0 | 10
CCOc1ccc(Oc2ccc(Cl)cc2NC(=O)CCNC(C)=O)cc1 | 1 | -2 | -10% | 5 | 0.9% | 1.8 | -27
CCn1nc(C)c(CN2CCN(Cc3ccc(OC)c(C)c3C)C(CCO)C2)c1C (centres undefined) | 3 | -14 | 8% | 4 | 0.1% | -3.5 | -3
Cc1c(C(=O)Nc2ccc(S(N)(=O)=O)cc2)oc2ccc(Cl)cc12 | -4 | -3 | -7% | 0 | 2.9% | -3.0 | -6
O=C(CN1c2ccccc2Sc2ccccc21)NNC(=O)Nc1cccc(Cl)c1 | 0 | -4 | -18% | -17 | 1.3% | 2.8 | 8
CCOC(=O)[C@H]1[C@H]2COc3ccc(Cl)cc3[C@@H]2N2C(=O)CN(Cc3ccc(OC)cc3)C(=O)[C@@]12C | -5 | -3 | nt | -10 | 0.5% | -0.1 | -10
CC(=O)N/C(=N/c1nc(C)cc(C)n1)Nc1cccc(C)c1C | 11 | -10 | 27% | 7 | -0.4% | -3.9 | 3
O=C(/C=C\Nc1cccc(F)c1)c1ccc2c(c1)OCO2 | 2 | -27 | 11% | 9 | 4.6% | 0.3 | -17
CC(C)(C)c1ccc(CN2C(=O)c3ccccc3S2(=O)=O)cc1 | 27 | -2 | -9% | 18 | -0.3% | -4.5 | -11
COc1cc(O)c(C(CCN2CCN(c3ccccc3)CC2)c2cc(OC)c(OC)c(OC)c2)c(OC)c1 (centres undefined) | 0 | -24 | -19%&-4% | -20 | 2.8% | -2.0 | -6
O=C(NCCS(=O)(=O)N1CCN(C(=O)c2ccco2)CC1)c1ccccc1 | 6 | -1 | nt | -4 | 0.6% | -1.8 | nt
O=C(NCc1ccccc1)C(c1ccccc1F)N(CC1CCCO1)C(=O)c1ccccn1 (centres undefined) | 19 | -10 | 2% | 9 | 0.8% | -1.6 | -6
CC(C)(C)OC(=O)N1CCC[C@H]1C(=O)N1CCC[C@H]1C(=O)NCc1ccc(F)cc1F | 2 | nt | nt | -2 | -0.1% | nt | nt
CC(=O)N1CCN(S(=O)(=O)c2ccc(F)c(Cl)c2)CC1 | 3 | -4 | 6% | 9 | -1.5% | 3.4 | -4
C1CCN(CCC2CCCCN2)CC1 (centres undefined) | -20 | -14 | nt | -3 | 0.0% | -3.3 | nt
O=c1c2c(-c3cccs3)csc2ncn1/N=C/c1ccc(OC(F)F)cc1 | 14 | -2 | 13% | 1 | 17%[38.3 µM] | -3.3 | 7

3 entries from above, in markdown:
| SMILES | CtBP-E1A blk | D2 PAM | Sfp PPTase inh | Six1-Eya2 inh | PINK1 expr mod | D2 agonist | TRPV1 PAM |
| --- | --- | --- | --- | --- | --- | --- | --- |
| Cc1ccc2occ(C(=O)c3ccco3)c(=O)c2c1 | 0 | -2 | -2% | 32 | 0.6%[38.3 µM] | -1.1 | 9 |
| O=C(N/N=C\c1ccc(Oc2ccccc2)cc1)c1csnn1 | nt | 27 | -83% | 0 | 0.5% | 1.5 | -17 |
| CCCc1cc(N2CCCC(C(=O)Nc3cc(Cl)ccc3OC)C2)n2ncnc2n1 (centres undefined) | -2 | -6 | nt | -2 | 0.9%[38.3 µM] | -1.4 | nt |

(more compounds)
SMILES | CtBP-E1A blk | D2 PAM | Sfp PPTase inh | Six1-Eya2 inh | PINK1 expr mod | D2 agonist | TRPV1 PAM
Nc1ncncc1-c1ccc2ccccc2c1 | nt | 4 | 17% | -18 | -2.3% | -3.6 | -13
COc1cccc(NC(=O)c2cc(-c3ccc(C)o3)nc3ccccc23)c1 | -22 | 3 | 50µM* | -12 | ? | -2.1 | -1
OCCC1CN(C2CCN(c3ccccc3F)CC2)CCN1Cc1ccccc1 (centres undefined) | nt | -16 | 5% | -1 | -1.5% | -3.6 | 5
COc1ccc2c(Cl)c(-c3nnc(SCC(=O)c4ccccc4)n3C)sc2c1 | -16 | -7 | -9% | -26 | -0.7% | 0.1 | 3
O=C(c1ccco1)N1CCN(C(=O)c2cc(-c3ccccn3)nc3ccccc23)CC1 | -1 | -1 | -6% | -1 | 1.3% | -3.4 | 29
CCOC(=O)N1CCN(C(=O)CSc2ccc(C(=O)OC)cc2[N+](=O)[O-])CC1 | nt | -11 | -8% | 0 | 0.7% | -4.1 | 1
CCO[C@@H]1OC(C(=O)O)=C[C@H](c2ccc(Br)cc2)[C@H]1CCCO | 0 | -6 | -18% | 8 | 1.3% | -1.1 | 17
Cc1ccnc(NC(=O)CC(c2ccccc2)c2ccccc2)n1 | 9 | 1 | 14% | 6 | 0.8% | -3.1 | -2
COc1cccc(Cn2cnc(-c3ccccc3OC)c2-c2cccs2)c1 | ? | nt | nt | -19 | 0.2% | nt | nt
CCCS(=O)(=O)N1CCN(c2ccccn2)CC1 | 10 | 6 | 7% | 3 | -1.2% | -4.6 | 22
